VCAM-1 rise: enhancers of VCAM-1 display on endothelial cells, cell-based, plate reader, pooled HUVEC, TNFa stimulus (AID 455) | HUVEC TNFa-induced VCAM-1 immunofluorescence, plate reader; numbers were filed only for top-ranked candidate wells | augmentation, % at 5 µM | hit rate 0.2% among 10,000;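 active = a compound raising TNF-alpha-driven VCAM-1 surface staining, with its hit status upheld on visual or statistical review; inactive = the rest, including hits rejected on review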;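 also: 0% = TNFa with vehicle and 100% = strongest image-checked hit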
Proteasome disasm: inhibitors of ATP-driven 26S proteasome dissociation, primary screen, biochemical, bead-based flow cytometry, GFP-tagged proteasome; anti-FLAG beads, GFP-proteasome disassembly; inhibition of disassembly, % (no concentration beside the values); hit rate 0.2% among 24,000;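 active = above 40%; inconclusive = likely self-fluorescent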;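 also: plate controls were ATP control with full disassembly for no effect and ATP-gamma-S intact proteasomes for full effect; higher percent means more bead fluorescence retained so stronger block of disassembly; stock transfer was 100 nL into about 10 µL; wells with too few beads may also be inconclusive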
Active calls of the source: *. This is a subset. The share of hits here may be higher or lower than overall.

Results for Cn1c(=O)c2cc(S(=O)(=O)NCCC(=O)NCCc3ccc(Cl)cc3)ccc2n(C)c1=O ?
Proteasome disasm: -1.1

How did COc1ccc(CCn2c(NCCCN3CCOCC3)nc3c2c(=O)[nH]c(=O)n3C)cc1 do in these assays?
VCAM-1 rise: inactive; Proteasome disasm: -2.6

What do the screens show for `COC(=O)C(C)NC(=O)C12CC3CC(CC(C3)C1)C2` (stereo unspecified)?
VCAM-1 rise: inactive; Proteasome disasm: -0.5

Results for CCCCC(=O)NC(Nc1cc(C)ccn1)(C(=O)OCC)C(F)(F)F (stereo unspecified) ?
Proteasome disasm: 0.1

Results for Cc1c(C=NCCOCc2ccccc2)cnn1C ?
VCAM-1 rise: inactive; Proteasome disasm: -1.5

What do the screens show for `CN(C)/C=C1\N=C(c2ccc(Cl)cc2Cl)OC1=O`?
VCAM-1 rise: inactive; Proteasome disasm: 3.5

Results for CC(C)N(Cc1nc(-c2ccc(Cl)cc2)no1)C(=O)CCCN1C(=O)c2ccccc2C1=O ?
Proteasome disasm: 11.2

Results for Cc1ccc(CNC(=O)CCCn2c(=O)c3ccccc3n(CC(=O)NC3CCCC3)c2=O)cc1 ?
Proteasome disasm: 0.0

How did CC(C)C(NC(=O)OCc1ccccc1)C(=O)OCC(=O)NCc1ccco1 (stereo unspecified) do in these assays?
VCAM-1 rise: inactive; Proteasome disasm: 1.0

What do the screens show for `CCNC(=O)N(C(=O)NCC)n1c(C)nnc1C`?
VCAM-1 rise: inactive; Proteasome disasm: 0.1

How did O=C1CCNc2cc3ccccc3cc21 do in these assays?
VCAM-1 rise: inactive; Proteasome disasm: inconclusive

Results for CCC(Sc1nc2cc3c(cc2c(=O)n1Cc1ccco1)OCO3)C(=O)Nc1ccccc1OC (stereo unspecified) ?
Proteasome disasm: 0.7

How did CC1CCN(C(=O)c2ccc(COc3ccccc3Cl)o2)CC1 do in these assays?
Proteasome disasm: 1.9

How did CCOC(=O)c1ccc(NC(=O)NC(C)C2CCCO2)cc1 (stereo unspecified) do in these assays?
VCAM-1 rise: inactive; Proteasome disasm: -3.5

Results for COc1ccc(S(=O)(=O)N2CCCN(CC(=O)C(C)(C)C)CC2)cc1 ?
Proteasome disasm: -1.5

What do the screens show for `CC1CCCC(NC(=O)C2CCN(S(=O)(=O)N3CCC4(CC3)OCCO4)CC2)C1C` (stereo unspecified)?
Proteasome disasm: -0.2

What do the screens show for `CCOC(=O)C1CCN(C(=O)CSc2cc(=O)n(CC)c3ccccc23)CC1`?
VCAM-1 rise: inactive; Proteasome disasm: 0.8

How did COc1cccc(NS(=O)(=O)c2ccc3c(c2)n(C)c(=O)c(=O)n3C)c1 do in these assays?
Proteasome disasm: 1.4

What do the screens show for `COC(=O)C1=C(N)N(c2ccc(F)cc2)C2=C(C(=O)CCC2)C1c1ccc2c(c1)OCO2` (stereo unspecified)?
Proteasome disasm: 0.5

Results for COC(=O)c1ccc(NC(=O)CN2C(=O)CSC2=O)cc1 ?
VCAM-1 rise: inactive; Proteasome disasm: 0.4

How did Cn1cc(C(=O)NCCN2CCN(c3cccc(Cl)c3)CC2)c2c3ccccc3n(C)c2c1=O do in these assays?
Proteasome disasm: -0.3

What do the screens show for `CCN(CC)C(=O)c1sc2nc(-c3ccc(OC)cc3)cn2c1C`?
Proteasome disasm: 1.3

What do the screens show for `COc1ccc(CCNC(=O)CC2COc3ccccc3O2)cc1OC` (stereo unspecified)?
VCAM-1 rise: inactive; Proteasome disasm: -2.1

Results for COCCCNC(=O)CSC1=Nc2ccccc2C2=NC(CC(=O)NCc3ccccc3)C(=O)N12 (stereo unspecified) ?
Proteasome disasm: 0.8

How did O=C(O)c1ccc2c(c1)C(c1ccccc1)OC2=O (stereo unspecified) do in these assays?
Proteasome disasm: -0.2

What do the screens show for `CCn1c(C(C#N)/C(=N\S(=O)(=O)c2cccs2)c2ccccc2)nc2ccccc21` (stereo unspecified)?
VCAM-1 rise: inactive; Proteasome disasm: 2.0

Results for CC(Oc1ccccc1)C(=O)NC1CC(C)(C)NC(C)(C)C1 (stereo unspecified) ?
VCAM-1 rise: inactive; Proteasome disasm: -0.3

Results for CCSc1nnc(-c2ccccc2NC(=O)CC)c(=O)[nH]1 ?
Proteasome disasm: -0.1

Results for COc1cccc(NC(=O)c2oc3ccccc3c2NC(=O)c2ccc3c(c2)OCO3)c1 ?
Proteasome disasm: 1.0

How did CCCOc1cccc(C(=O)N(Cc2ccco2)C2CCS(=O)(=O)C2)c1 (stereo unspecified) do in these assays?
VCAM-1 rise: inactive; Proteasome disasm: -2.4

Results for C=COCCNC(=O)Nc1ccc(Cl)c(Cl)c1 ?
VCAM-1 rise: inactive; Proteasome disasm: -3.7

What do the screens show for `CCOC(=O)N1CCN(C(=O)CCN2C(=O)COc3ccc(C)cc32)CC1`?
Proteasome disasm: -0.3

What do the screens show for `CSCCC(NC(=O)CCN1C(=O)c2ccccc2C1=O)C(=O)O` (stereo unspecified)?
VCAM-1 rise: inactive; Proteasome disasm: -0.1

How did Cc1ccc(CN2C(=O)CCC2C(=O)NCc2ccco2)cc1 (stereo unspecified) do in these assays?
Proteasome disasm: -0.6

How did Cc1cccc(N2CCN(C(=O)C3CCCN(S(=O)(=O)c4c(C)noc4C)C3)CC2)c1C (stereo unspecified) do in these assays?
VCAM-1 rise: inactive; Proteasome disasm: 2.2

What do the screens show for `CCCn1c(C)cc(=O)c2cc(NC(=O)c3cnccn3)ccc21`?
Proteasome disasm: 0.0

What do the screens show for `O=C(Cn1ccc2ccccc2c1=O)NCCC(=O)N1CCN(c2cccc(C(F)(F)F)c2)CC1`?
Proteasome disasm: 0.0

How did COc1ccccc1NC(=O)CSc1nnc(Cn2c(=O)sc3ccccc32)n1C do in these assays?
Proteasome disasm: 2.2

What do the screens show for `CCCCn1c(SCC(=O)OCC)nc2c1c(=O)[nH]c(=O)n2C`?
VCAM-1 rise: inactive; Proteasome disasm: -0.5

What do the screens show for `CC1(C(=O)NC2CCCCC2)CCC(=O)N1Cc1cccnc1` (stereo unspecified)?
Proteasome disasm: 1.4

How did Cc1ccc(S(=O)(=O)NCCc2ccncc2)cc1 do in these assays?
VCAM-1 rise: inactive; Proteasome disasm: 0.1

What do the screens show for `COc1ccc(S(=O)(=O)NC(CC(=O)NCc2ccccc2OC)c2ccco2)cc1` (stereo unspecified)?
Proteasome disasm: -0.1

Results for CCN(CC)S(=O)(=O)N1CCC(C(=O)NCCN2CCOCC2)CC1 ?
Proteasome disasm: -0.5

How did COC(=O)Nc1ccc(S(=O)(=O)N2CCCCCC2)cc1 do in these assays?
VCAM-1 rise: inactive; Proteasome disasm: -2.5

Results for O=C(CCC1CCCCC1)Nc1c2c(nn1-c1ccc(F)cc1)CS(=O)(=O)C2 ?
Proteasome disasm: 0.8

How did COc1ccc(C2C(C(N)=O)=C(C)Nc3nc(-c4ccccc4OC)nn32)cc1OC (stereo unspecified) do in these assays?
Proteasome disasm: -0.6

What do the screens show for `CCC(Oc1ccc2c(c1)C(=O)CC(C)(C)O2)C(=O)NCCN1CCCCCC1` (stereo unspecified)?
Proteasome disasm: 1.8

What do the screens show for `CCCN(CCC)CCNS(=O)(=O)c1ccc2c(c1)oc(=O)n2C`?
VCAM-1 rise: inactive; Proteasome disasm: -0.3

How did CCCc1nnc(NC(=O)C(C)N2C(=O)C3C4C=CC(C4)C3C2=O)s1 (stereo unspecified) do in these assays?
Proteasome disasm: 0.9

What do the screens show for `Nn1c(SCC(=O)NC2CCCCC2)nnc1-c1ccc(Cl)cc1`?
VCAM-1 rise: inactive; Proteasome disasm: 0.8

What do the screens show for `Cc1ccc(CCNC(=O)c2coc3nc4ccccc4nc23)cc1`?
Proteasome disasm: inconclusive

Screens deposited in PubChem by several laboratories.
